N370S GC: inhibits or activates N370S mutant glucocerebrosidase; P04062; N370S GC spleen homogenate, 4MU-glucoside fluorescence; Potency, µM (highest dose often 59.4 µM), without a hit: at the highest dose activity change, negative = inhibition, most hits filed as inhibitors; 330,000 compounds, 0.092% hits; AID 2101;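 note: 0% = full enzyme activity and -100% = no enzyme basal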
FEN1 inhibitor: human FEN1 inhibition; Potency, µM (doses to about 114 µM), for the others: top-dose activity change, negative = inhibition, hits mostly inhibitors; AID 588795; P39748; Recombinant FEN1 flap cleavage, fluorescence, 15 min; 390,000 compounds, 0.35% hits; note: nearly all actives have a fitted effect of over 65% in size
Target sequence (P39748 whole entry, looked up): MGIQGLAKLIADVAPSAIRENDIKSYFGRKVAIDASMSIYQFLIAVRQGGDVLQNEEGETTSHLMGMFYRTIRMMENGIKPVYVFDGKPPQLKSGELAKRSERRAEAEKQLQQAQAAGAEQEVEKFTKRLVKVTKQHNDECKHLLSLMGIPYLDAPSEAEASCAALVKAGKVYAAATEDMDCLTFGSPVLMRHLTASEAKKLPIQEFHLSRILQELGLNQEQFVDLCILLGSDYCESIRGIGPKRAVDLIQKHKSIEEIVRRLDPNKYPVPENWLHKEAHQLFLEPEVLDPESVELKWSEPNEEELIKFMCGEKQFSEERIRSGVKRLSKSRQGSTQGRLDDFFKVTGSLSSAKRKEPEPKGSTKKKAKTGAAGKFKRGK
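Steps: FEN1 (10 nM) dispensed; compound added by pin tool; 15 min at room temperature; substrate added to 50 nM final; reads at 0 min and 15 min; data normalized and fitted (four-parameter Hill).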
* hit, by the source's call; u = inconclusive; x = not tested or not shown; & = joins results of further samples. Calls come from the whole dose curve; as a rule, active = well fitted curve in the direction sought with a large enough effect; inconclusive = small, poorly fitted or top-dose-only effect, or another doubt; inactive = no such curve, though single readings can be large; an effect the other way counts as inactive or inconclusive. Unless noted, % is set by controls: 0 for no effect and ±100 for the full control effect; potency is the fitted concentration of half-maximal effect. Not all compounds are listed; most or all hits stand in other tables.

SMILES	N370S GC	FEN1 inhibitor
O=C(O)c1ccc(CSc2nc3ccc(N4C(=O)C5C6C=CC(C6)C5C4=O)cc3s2)cc1 (configuration not stated)	u	-5.2%
Cn1c(=O)c(NCCc2ccccc2)c2c3c(cccc31)C(=O)c1ccccc1-2	21.6%	56.2µM*
O=C1COc2ccc(C(=O)CSc3ccccc3C(=O)O)cc2N1	4.2%	-1.4%
O=C(O)c1ccccc1N/N=C/c1c(Sc2nnnn2-c2ccccc2)nc2ccccn2c1=O	8.4%	u
S=P(N1CC1)(N1CC1)N1CC1	-3.5%&12.4%	8.0%
CSCCC(NC(=O)c1ccccc1Cl)C(=O)N1CCN(C(c2ccccc2)c2ccccc2)CC1 (configuration not stated)	3.0%	3.0%
CCOc1ccccc1C(=O)N(Cc1ccco1)Cc1ccco1	x	0.7%
CCCCN1C(=O)C(O)(CC(=O)c2ccccn2)c2ccccc21 (configuration not stated)	1.1%	1.5%
COc1ccc2c(c1)c1c(c(=O)n(Cc3ccccc3)c(=O)n1CC(=O)Nc1ccccc1F)n2C	x	13.2%
CC1(C)SC2C(NC(=O)COc3ccccc3)C(=O)N2C1C(=O)O (configuration not stated)	-2.6%&-15.7%&-1.7%	-6.7%&7.0%
O=[N+]([O-])c1ccc(N/N=C/c2cn(-c3ccccc3)nc2-c2ccccc2)cc1	0.0%	-4.6%
O=C1C2C(C(=O)N1Cc1ccco1)C1C=CC2C12CC2 (configuration not stated)	0.9%	10.8%
CCc1ccccc1N1CSC2=C(C#N)C(c3ccccc3F)CC(=O)N2C1 (configuration not stated)	-4.6%	-29.0%
O=C(CSc1n[nH]c(-c2ccncc2)n1)Nc1ccc(Cl)c(Cl)c1	24.2%	9.8%
Cc1ccc(N(O)C(=O)OCCNC(=O)Nc2ccccc2)cc1	2.8%	-0.1%
CCCCCCc1nnc(NC(=O)OCC)s1	9.4%	-5.6%
COc1ccc(S(=O)(=O)NCCc2sc3nc(-c4ccc(C)cc4)nn3c2C)cc1F	x	-23.4%
Cn1cccc1C(=O)NC(=O)COC(=O)Cc1coc2ccc3ccccc3c12	1.6%	-6.8%
COC(=O)c1ccccc1C(=O)N1CCCC(C(=O)c2ccc(OC)c(OC)c2)C1 (configuration not stated)	-1.2%	-4.5%
Cc1ccc(N2C(=O)C3C(C2=O)N2C(c4cccs4)C4C(=O)N(c5ccc(C)cc5)C(=O)C4N2C3c2cccs2)cc1 (configuration not stated)	-4.0%	-5.6%
Cc1cc(-c2ccc(C)c(S(=O)(=O)N3CCN(c4ccccn4)CC3)c2)on1	-7.5%	-23.1%
c1ccc(-c2noc(C34CC5CC(CC(C5)C3)C4)n2)cc1	7.3%	-9.3%
O=C(Nc1ccc(N2CCOCC2)cc1)c1ccc(-c2ccccc2[N+](=O)[O-])o1	-12.5%	-16.0%
Cc1ccc(C(=O)Nc2ncc(Cc3ccc(F)cc3)s2)o1	-2.5%	-19.1%
O=C(OC1CCOC1=O)c1cc(-c2ccccc2)nc2ccccc12 (configuration not stated)	x	-15.1%
O=C(NC1CCCCC1)C(c1ccco1)N(C(=O)c1csnn1)c1cccc(Cl)c1 (configuration not stated)	-2.3%	13.9%
CC1(C)O[C@@H]2[C@H](O1)[C@@H](COS(=O)(=O)O)O[C@H]2n1cc(Br)c(=O)[nH]c1=O	x	2.5%
COc1ccc(CN2CCNC(=O)C2CC(=O)NC2CCCC2)c(C)c1C (configuration not stated)	-3.2%	-9.9%
COc1cccc(-n2c(SCC(=O)Nc3sc4c(c3C(N)=O)CCC4)nc3ccccc3c2=O)c1	4.7%	-7.6%
C=CC[C@@H](CC(=O)N(CCO)Cc1ccccc1)C(=O)NC[C@@H](OC(=O)[C@@H](CC=C)Cc1ccc(F)cc1)c1ccccc1	x	-21.6%
COc1cccc(/C=N/Nc2ncccc2[N+](=O)[O-])c1OC	-8.8%	1.4%
Cc1occc1-c1nnc(SCC(=O)N2CCCc3ccccc32)n1Cc1ccco1	0.9%	-1.4%
CSc1nsc(SC)c1C(=O)O	-2.1%	0.5%
Cc1ccc(O)c(C(CC(=O)NCc2cccnc2)c2ccccc2)c1 (configuration not stated)	-5.9%	-1.0%
Cc1ccc2c(c1)N(C(=O)Nc1cccc3c1CCCC3)CCO2	x	5.7%
Cc1cc(C)c2nc(SCC#N)cc(C)c2c1	3.6%	u
O=C(c1ccc(F)cc1)N1CCN(c2cc(=O)[nH]nc2-c2ccccc2)CC1	4.1%	-5.5%
CC(=O)c1cc(CN2CCN(CC=C(C)C)C(CCO)C2)cs1 (configuration not stated)	-6.9%	17.2%
Cc1c(C(=O)Nc2ccc(-c3nnc4n3CCCCC4)cc2)oc2c1ccc1ccccc12	3.9%	-6.0%
CCC(=O)Nc1ccc2nc(SCCOc3cccc(C)c3)sc2c1	x	-0.3%
CC(C)(C)OC(=O)C[C@@H]1C/C=C\C[C@@H](CC(=O)N[C@@H](CO)Cc2ccccc2)C(=O)N2CCC[C@@H]2COC1=O	x	-2.7%
Cc1ccc(OCCN(C)C(=O)C2CCC(=O)N(Cc3ccccc3F)C2)cc1 (configuration not stated)	6.1%	3.8%
Cc1ccc(Cl)cc1N(C)C(=O)c1cc2c(Cl)nc3ccccc3c2s1	x	5.1%
O=C(CCc1ccc(S(=O)(=O)N2CCOCC2)cc1)N1CCN(Cc2ccc3c(c2)OCO3)CC1	3.2%	-2.8%
OC(CN1CCN(c2cccc(Cl)c2)CC1)C(c1ccccc1)c1ccccc1 (configuration not stated)	-29.8%&-6.5%&-18.9%	8.0%
COc1ccc(N(CC(=O)NC2CCCCC2)C(=O)CNC(=O)c2ccco2)c(OC)c1	11.5%	-4.3%
NC(=O)CCN1CCN(CCOC2Cc3cc(Cl)ccc3Sc3ccccc32)CC1 (configuration not stated)	-19.9%	6.1%
CCOc1ccc2nc(NCCNC(=O)CC)c(C#N)cc2c1	7.7%	-0.7%
C[C@H](CO)N1C[C@H](C)[C@@H](CN(C)S(=O)(=O)c2cccs2)Oc2ccc(NC(=O)Cn3cnnn3)cc2C1=O	x	15.5%
CCOC(=O)c1ccc(NC(=S)N(CCN2CCCCCC2)Cc2ccco2)cc1	-16.7%	9.0%
CC(C)(C)C(=O)Nc1cc(NC(=O)C(C)(C)C)cc(C(=O)Nc2cc(C(=O)O)cc(C(=O)O)c2)c1	3.3%	4.7%
COC(=O)C1=C(N)Oc2cc(C)n(CC3CCCO3)c(=O)c2C1c1ccccc1OC (configuration not stated)	5.2%	1.4%
O=C(Cn1c(-c2cccs2)cc2ccccc21)NCCc1ccc(Cl)cc1	x	-2.6%
Cc1ccc(S(=O)(=O)N2CCC(C(=O)NCCc3ccccn3)CC2)cc1	1.2%	1.9%
CCC(C)c1ccc(S(=O)(=O)N2CCN(C(C)CC(=O)O)CC2)cc1 (configuration not stated)	-3.8%	-0.2%
COc1ccc(/C=C2\Sc3ccc(C(=O)NCCCN4CCCC4)cc3N(C)C2=O)cc1OC	-14.2%	12.7%
COCCn1nnnc1C(C(C)C)N1CCOCC1 (configuration not stated)	11.5%	-0.2%
COCCCn1cnnc1SCc1nc2sc(C(C)=O)c(C)c2c(=O)[nH]1	-5.3%	-0.1%
CCOc1ccc(N(CC(=O)N2CCCCCC2)S(=O)(=O)c2ccc(C)cc2)cc1	-10.5%	6.4%
CCc1ccc(C(C(=O)NC2CCCC2)N(Cc2cccnc2)C(=O)c2csnn2)cc1 (configuration not stated)	-5.1%	-9.9%

Sorted by SMILES length (highest first): part of the list above.
SMILES	N370S GC	FEN1 inhibitor
O=C(CCc1ccc(S(=O)(=O)N2CCOCC2)cc1)N1CCN(Cc2ccc3c(c2)OCO3)CC1	3.2%	-2.8%
Cn1c(=O)c(NCCc2ccccc2)c2c3c(cccc31)C(=O)c1ccccc1-2	21.6%	56.2µM*
Cc1ccc(OCCN(C)C(=O)C2CCC(=O)N(Cc3ccccc3F)C2)cc1 (configuration not stated)	6.1%	3.8%
CCOC(=O)c1ccc(NC(=S)N(CCN2CCCCCC2)Cc2ccco2)cc1	-16.7%	9.0%
O=C(CSc1n[nH]c(-c2ccncc2)n1)Nc1ccc(Cl)c(Cl)c1	24.2%	9.8%
CCC(=O)Nc1ccc2nc(SCCOc3cccc(C)c3)sc2c1	x	-0.3%
Cc1ccc(C(=O)Nc2ncc(Cc3ccc(F)cc3)s2)o1	-2.5%	-19.1%

Compound profiles, as listed above. Order of screens: N370S GC, FEN1 inhibitor
`COCCn1nnnc1C(C(C)C)N1CCOCC1` (configuration not stated) as listed: 11.5%, -0.2%
`CSCCC(NC(=O)c1ccccc1Cl)C(=O)N1CCN(C(c2ccccc2)c2ccccc2)CC1` (configuration not stated) as listed: 3.0%, 3.0%

Following part
SMILES	N370S GC	FEN1 inhibitor
Nc1ccc2oc(-c3cccc(Br)c3)nc2c1	0.9%	9.7%
Cc1cc(S(=O)(=O)NC[C@H]2O[C@@H](n3cnc4c(N)ncnc43)[C@H](O)[C@@H]2O)c(C)s1	x	14.7%
CCn1c(SCC(=O)c2ccc3c(c2)Cc2ccccc2-3)nnc1-c1ccc(N)cc1	-9.6%	-15.0%
CC(=O)OC(C(=O)NCS(=O)(=O)c1ccc(C)cc1)c1cccnc1 (configuration not stated)	-12.9%	29.0%
CCn1c(CN2CCOCC2)nnc1SCC(=O)Nc1ccc(C(C)=O)cc1	5.2%	-1.8%
Cc1cc(Nc2ccccc2F)n2nc(Cc3ccc(Cl)cc3)nc2n1	x	-10.9%
CCCCNC(=O)NNC(=O)COc1cccc(C)c1C	2.3%	-11.0%
Cc1nn(CC(=O)NCc2ccc(OC(C)C)cc2)c(=O)c2cc(-c3ccccc3)nn12	-2.9%	-0.4%
Cc1ccccc1N1CC2=C(C1=O)C(c1ccccc1)NC(=O)N2C (configuration not stated)	-9.3%	4.3%
O=C(Nc1cccc(-c2nc3cc(Cl)ccc3o2)c1)c1cc([N+](=O)[O-])ccc1N1CCOCC1	x	9.6%
O=C(CN1CCN(S(=O)(=O)c2ccc3ccccc3c2)CC1)N1CCc2ccccc2C1	4.9%	-17.0%
COc1cccc(-n2ccnc2SCC(=O)Nc2cc(OC)ccc2OC)c1	8.8%	-10.1%
COc1ccc(CC(=O)Nc2cc(-c3cn4cccnc4n3)ccc2C)cc1OC	x	-8.7%
Cc1nnc(SCC2=C(C(=O)O)N3C(=O)C(NC(=O)COc4ccccc4)C3SC2)s1 (configuration not stated)	0.8%	-18.8%
CC1CC(C)(C)NC(=S)N1CCC(=O)NCc1ccc(Cl)cc1 (configuration not stated)	-6.6%	5.2%
CCOc1ccc(NC(=O)C2CC(=O)NC(N3CCc4ccccc43)=N2)cc1 (configuration not stated)	-1.0%	-11.7%
CCOC(=O)CN(C(=O)CSc1nnc(CNc2ccc(F)cc2)o1)c1ccccc1	1.7%	12.5%
COc1ccc([N+](=O)[O-])cc1/C=N/NC(=O)c1nonc1N	-1.8%	-0.1%
CC(C)(C)c1ccc(C(=O)NC(=S)N2CCOCC2)cc1	2.8%	-3.3%
CC(C)[C@H](NC(=O)Nc1cccc(Br)c1)C(=O)O	7.7%	-4.3%
CS(=O)(=O)N(CC(=O)N1CCN(Cc2ccc3c(c2)OCO3)CC1)C1CCCCC1	1.0%	-1.1%
CC(=O)OCC(=O)[C@@]1(O)CCC2C3CC[C@H]4CC(O)CC[C@@]4(C)C3C(=O)C[C@]21C (some centres not stated)	8.6%	x
Cc1sc2nc(SCc3nnc(-c4cccs4)o3)n(C3CCCC3)c(=O)c2c1C	-10.5%	-17.2%
COc1ccc(NC(=O)C2CCN(C(=O)c3ccco3)CC2)c(OC)c1	-3.0%	3.8%
COc1cccc(/C=C/C(=O)OCC(=O)NC(=O)NC2CCCCC2)c1	-12.1%	-21.3%
CC(CNC(=O)c1cc(COc2c(F)cccc2F)on1)c1ccccc1 (configuration not stated)	1.6%	-18.3%
S=C(NCC1CCCO1)NC1CC1 (configuration not stated)	2.7%	-10.7%
CCCCNC(=O)C1CCN(C(=O)Nc2ccc(C)cc2)CC1	9.3%	-0.2%
O=[N+]([O-])c1cccc(COc2ncnc3cc([N+](=O)[O-])ccc23)c1	-6.8%	u
COc1ccc(-c2cc3ncnc(Cl)c3s2)cc1	u	-23.9%
CC(C)c1nnc(NC(=O)C2CCCO2)s1 (configuration not stated)	7.1%	-4.1%
COc1ccc(N(CC(=O)NCCSCc2c(F)cccc2Cl)S(C)(=O)=O)cc1OC	3.5%	6.9%
O=C1c2ccccc2-c2c1cccc2C(=O)N1CCCCC1	5.0%	-4.2%
COc1ccc2nc(-c3ccc(Cl)cc3)cc(C(=O)O)c2c1	13.9%	-14.7%
Cn1c2ccccc2c2c(C(=O)O)cn(C3CCCC3)c(=O)c21	10.8%	12.9%
O=C(NCc1cccnc1)c1ccc(Br)s1	5.0%	-0.4%
CN(C)CCN1C(=O)C(=O)/C(=C(/O)c2ccc3c(c2)OCCO3)C1c1ccccn1 (configuration not stated)	0.8%	5.9%
CSc1ccc(CNc2ccc(C)c(C)c2)cc1	4.7%	-25.9%

Screening results (PubChem)
